Bioassay records: PubChem BioAssay, several laboratories
Ecoli growth: E. coli growth inhibition; OD600 absorbance (concentration not given with the values); Escherichia coli growth, OD600, 23 h; hits give low values; 0.21% of 330,000 active;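 active means OD600 absorbance below the run mean of sample wells minus 3.6 SD, in any replicate, cut at about 0.56 in these data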;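 further: stock transfer was 300 nL into about 60 µL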
Vif A3G: HIV-1 Vif–A3G interaction blockers – biochemical, TR-FRET, GST-Vif 1-94, biotin-A3G peptide, dose response retest, primary screen (AID 1117319); TR-FRET GST-Vif / biotin-A3G peptide binding; higher % means a stronger effect; test concentration not given here; strong numbers were not always called active; one-dose inhibition, %; IC50 in µM for titrated hits; 0.57% of 260,000 active;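 active means above the screen mean plus three standard deviations and confirmed in dose response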;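 further: Vif residues 1-94 fused to GST binding biotinylated APOBEC3G peptide 110-148; 0% = full assay without inhibitor and 100% = GST in place of GST-Vif; retest series ran down from 100 µM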
HNF4A DNA FP: change in binding of human HNF4 alpha to DNA. HNF4a-FITC DNA binding, fluorescence polarization, 1 h. activity change, % at 10 µM. 0.3% of 360,000 active; in the data active means activity change above about 30%, passing the limit was not always enough;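 further: controls were the assay level and a saturating level of protein; the project sought stronger binding though the title names inhibitors; some compounds called inactive have numbers as strong as hits; positive values seem to mean higher polarization but the record does not say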
FGF22 binding: binders of recombinant human FGF22 by thermal shift; Q9HCT0; SYPRO orange fluorescence; percent of sucrose octasulfate shift, DMSO zero; calls only at 9.99 µM; 1.5% of 340,000 active; AID 651658;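 active means melting point raised past a set limit in the mean and every replicate; three in four hits are not shown here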
Target sequence (Q9HCT0 whole entry, looked up): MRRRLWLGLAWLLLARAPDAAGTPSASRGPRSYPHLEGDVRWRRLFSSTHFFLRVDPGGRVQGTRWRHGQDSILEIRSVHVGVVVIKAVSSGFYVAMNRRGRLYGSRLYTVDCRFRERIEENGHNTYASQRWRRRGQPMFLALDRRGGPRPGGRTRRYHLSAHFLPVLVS
Ecoli rRNA inh: inhibits bacterial ribosomal RNA function over humanized ribosomes; AID 720706; E. coli WT GFP vs humanized-ribosome RFP mutants, fluorescence, 24 h; hits give low values; DMSO median 0, no signal -100; GFP signal change (wild-type ribosome), % (test concentration not listed); 1.6% of 350,000 active;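 active means significant combined selectivity score with lowered wild-type GFP, culture density cut under 30%, mutant RFP and density less affected; inactive means any of these conditions unmet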; further: one replicate is shown; some compounds called inactive have numbers as strong as hits
MLL AF4-AF9 inh: MLL-AF4/AF9 protein interaction inhibition. P42568. AlphaScreen, biotin-AF4 peptide binding to FLAG-AF9. inhibition, % at 10 µM. 0.47% of 350,000 active;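 active means every replicate reaching a set inhibition limit, whatever the replicate mean, cut at about 25% in these data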;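 further: 0% = plate neutral control median and 100% = total signal loss; the record names both 10 and 1 µM as test concentration; the first replicate is given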
Target sequence (P42568 whole entry, looked up): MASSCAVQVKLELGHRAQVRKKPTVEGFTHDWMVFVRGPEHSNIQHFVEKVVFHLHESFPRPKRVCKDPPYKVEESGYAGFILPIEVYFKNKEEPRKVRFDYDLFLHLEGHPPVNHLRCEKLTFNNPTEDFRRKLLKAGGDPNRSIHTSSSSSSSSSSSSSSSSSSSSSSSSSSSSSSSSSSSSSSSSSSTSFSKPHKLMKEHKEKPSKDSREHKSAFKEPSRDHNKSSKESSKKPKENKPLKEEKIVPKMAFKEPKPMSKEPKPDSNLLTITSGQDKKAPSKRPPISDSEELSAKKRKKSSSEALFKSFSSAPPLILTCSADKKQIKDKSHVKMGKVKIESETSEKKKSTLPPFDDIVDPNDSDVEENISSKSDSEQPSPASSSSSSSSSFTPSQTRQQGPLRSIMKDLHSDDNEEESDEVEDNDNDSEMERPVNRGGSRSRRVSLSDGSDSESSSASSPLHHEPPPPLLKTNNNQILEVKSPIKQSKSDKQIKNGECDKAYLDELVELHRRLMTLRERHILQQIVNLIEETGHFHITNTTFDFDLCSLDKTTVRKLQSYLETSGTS
ALR inh: human ALR oxidase inhibition via reduced H2O2; P55789; purified ALR, DTT oxidation, H2O2 HRP-luminol luminescence; inhibition, % (no concentration beside the values); 3.8% of 290,000 active;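 active means mean and each replicate at 75% or more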;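 further: stock transfer was 7.5 nL into about 7.5 µL; 0% = neutral wells and 100% = wells with inactivated enzyme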
Target sequence (P55789 whole entry, looked up): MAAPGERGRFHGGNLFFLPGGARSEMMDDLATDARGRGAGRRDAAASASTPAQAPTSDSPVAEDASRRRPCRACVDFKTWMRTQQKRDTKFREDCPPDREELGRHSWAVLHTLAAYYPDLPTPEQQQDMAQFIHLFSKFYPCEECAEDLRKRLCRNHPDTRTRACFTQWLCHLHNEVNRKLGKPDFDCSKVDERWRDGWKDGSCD
Ecoli rRNA inh OD600: recorded beside Ecoli rRNA inh, whose call it bears; OD600 change, %; measured here: OD600 growth;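 optical density of the mix in the first replicate; 0 = DMSO median and -100 = no signal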
Ecoli rRNA inh RFP: recorded beside Ecoli rRNA inh, whose call it bears; RFP signal change, %; measured here: RFP humanized mutant strains;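 first replicate; 0 = DMSO median and -100 = no signal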
* = called active by the depositor; i = inactive; nt = no result given; + = active, no number; & = joins results of further samples.

SMILES	Ecoli growth	Vif A3G	HNF4A DNA FP	FGF22 binding	Ecoli rRNA inh	Ecoli rRNA inh OD600	Ecoli rRNA inh RFP	MLL AF4-AF9 inh	ALR inh
CN(Cc1ccccc1)CC(O)COc1ccc(CNCCc2cccnc2)cc1 (centres undefined)	0.66	-4%	-3.6	i	4	8	2.2	2.6	-9
Cc1ccc(Cl)cc1Nc1nc(-c2cccnc2)cs1	0.68	nt	-1.6	i	-41	-74	-6.8	-2.8	7
COc1cccc(Nc2nc(C(N)c3ccccc3)cs2)n1 (centres undefined)	nt	nt	0.9	i	nt	nt	nt	20	nt
CCCc1[nH]nc2c1C(c1ccc(OC(=O)N3CCOCC3)cc1)C(C#N)=C(N)O2 (centres undefined)	0.63	16%	-2.1	i	9	3	1.0	2.8	26
Clc1ccc(-c2nnc(-c3ccccc3)c(-c3c[nH]c4ccccc34)n2)cc1	0.76	18%	-3.2	i	0	-1	-7.1	6.4	-4
COC(=O)CCN1CCN(S(=O)(=O)c2ccc3c(c2)OCCO3)CC1	0.68	nt	2.6	i	2	4	-2.9	0.0	-2
CCCOc1ccc(C(=O)O)cc1	0.67	-6%	-3.0	i	9	3	-2.0	-54	-8
COc1cc(C(=O)NNC(=O)Nc2ccc([N+](=O)[O-])cc2)cc(OC)c1OC	0.69	-4%	-3.2	i	4	15	-1.9	0.8	-1
O=c1ccnc(SCCC(F)=C(F)F)[nH]1	0.68	3%	0.1	i	10	2	2.2	0.1	-21
Cn1cc(S(=O)(=O)Nc2ccc(Oc3ccccc3)cc2)c(=O)n(C)c1=O	0.7	nt	-3.9	i	0	-8	0.1	1.7	2
CCOC(=O)C1=C(C)NC(SC)=NC1c1ccccc1 (centres undefined)	0.75	31%	1.9	nt	nt	nt	nt	nt	4
CN(CC(=O)NC(=O)NC1CCCCC1)CC(=O)Nc1ccc(OC(F)(F)F)cc1	0.66	nt	-1.9	i	-9	0	-2.8	1.1	-19
CC(=O)Nc1nc(CC(C)C)cc2c1c(=O)oc1ccccc12	0.82	-12%&3%	-1.0	nt	nt	nt	nt	nt	nt
O=C(/C=C/c1cccs1)c1ccc(NC(=O)c2ccccc2F)cc1	0.69	18%	-0.9	i	-23	-17	-1.0	-18	2
O=C(CNS(=O)(=O)c1ccccc1)N1CCc2ccccc2C1	0.66	nt	0.0	i	1	-5	-1.6	4.5	4
CN(C)C(=O)c1ccc(-c2ccc3n(c2=O)C[C@H]2[C@H](CO)[C@@H](C(=O)NCCc4ccccc4)N[C@@H]32)cc1	nt	nt	nt	i	1	0	1.0	3.6	nt
O=C1NC2(CCCCCC2)C(=O)N1Cc1ccc([N+](=O)[O-])cc1	0.69	nt	0.1	nt	nt	nt	nt	nt	-5
CCC(C)n1c(SCC(=O)NC(=O)c2cccn2C)nc2ccccc2c1=O (centres undefined)	0.73	-1%	7.9	i	-24	-28	-1.5	8.6	-68
O=C(C[C@@H]1CC[C@H]2[C@@H](COC[C@@H](O)CN2C(=O)Nc2cc(Cl)cc(Cl)c2)O1)NCC1CC1	nt	nt	nt	i	-24	-26	-2.2	2.5	nt
C[C@H]1CN([C@@H](C)CO)C(=O)c2cc(NC(=O)C3CC3)ccc2O[C@@H]1CN(C)Cc1ccc(Cl)c(Cl)c1	nt	nt	nt	i	0	-2	-1.9	-2.2	nt
COc1ccc(S(=O)(=O)Nc2ccc3c(c2)C(=O)N([C@@H](C)CO)C[C@H](C)[C@H](CN(C)C(=O)Nc2c(C)noc2C)OCCCC[C@H](C)O3)cc1	nt	nt	nt	i	2	2	2.5	-0.2	nt
O=C(NC1CC1)c1ccc(NS(=O)(=O)c2ccccc2)cc1	0.73	nt	1.1	i	-2	0	-3.3	-0.1	-14
CCc1c(-c2ccc(F)cc2F)ncn1CCc1ccccc1OC	nt	nt	nt	i	-58	-78	-15	16	nt
CCc1cc(-c2nc(N)ncc2-c2csc(C)n2)c(O)cc1OC	0.65	-2%	2.1	i	-26	-35	-7.2	6.1	5
COc1ccc(-c2nc(-c3ccc(O)cc3O)cs2)cc1OC	0.63	-5%	0.1	+	nt	nt	nt	9.6	nt
CN(N=Cc1cccc2cccnc12)c1ccc([N+](=O)[O-])cc1[N+](=O)[O-]	nt	-1%	-40	i	-3	0	2.2	0.2	nt
COCC#Cc1ccc2c(c1)O[C@H](CN(C)C(=O)Nc1ccccc1F)[C@H](C)CN([C@H](C)CO)S2(=O)=O	nt	nt	nt	i	0	-2	-2.0	-7.0	nt
Cn1ncc(C(=O)Nc2ccc(OC(F)(F)F)cc2)c1-n1cccc1	0.68	-4%	-1.3	i	2	14	-1.8	nt	0
COC(=O)C1=CN(c2ccc(F)cc2)C=C(C(=O)OC)C1c1cccc([N+](=O)[O-])c1	0.68	4%	-2.1	i	11	12	-0.9	7.0	-3
CNc1ccc(Br)cc(C(=O)/C=C/c2cc(OC)ccc2OC)c1=O	0.69	3.6µM*	-3.9	nt	nt	nt	nt	nt	49
CN(Cc1ccccc1)C(=O)COC(=O)c1ccc(-n2cnnn2)cc1	0.65	0%	-2.6	i	6	1	-1.9	-3.7	nt
O=C(CSc1ccccc1F)NC(=O)NCc1ccco1	0.72	-5%	-1.3	i	11	13	-2.8	2.7	nt
Cc1cc(Nc2c(C)n(C)n(-c3ccccc3)c2=O)n2c(nc3ccccc32)c1C#N	0.63	0%	-2.7	nt	nt	nt	nt	nt	1
Cc1ccc(S(=O)(=O)N2CCCC(C(=O)NCCc3ccc(Cl)cc3)C2)cc1 (centres undefined)	nt	0%	-0.2	i	2	4	3.1	-7.5	nt
COc1ccc(CNC(=O)COC(=O)c2cc(-c3cccs3)nc3ccccc23)cc1OC	0.75	-1%	6.0	nt	nt	nt	nt	nt	-2
C[C@@H]1CN([C@@H](C)CO)C(=O)Cc2cc(NC(=O)Cc3cn(C)c4ccccc34)ccc2O[C@@H]1CN(C)Cc1ccc(C(=O)O)cc1	nt	nt	nt	i	-5	9	0.2	0.6	nt
CCn1c(CNC(=O)Cc2ccc(OC)cc2)n[nH]c1=S	0.72	18%	0.6	i	6	2	2.3	-2.8	6
CC(C)CC(c1nnnn1C(C)C)N1CCN(C(=O)c2ccco2)CC1 (centres undefined)	0.7	8%	1.6	i	-1	9	-0.1	1.2	-18
O=C(OCc1ccc(Cl)c(Cl)c1)c1cnccn1	0.69	-7%	-2.9	nt	nt	nt	nt	nt	21
S=C(NCCc1cnc[nH]1)NC1CCCC1	0.67	-1%	-1.5	i	11	13	-1.1	-0.7	-3
CCc1nc2ccc(C(=O)NCCOc3ccc(OC)cc3)cn2c1N(C)Cc1nccn1C	nt	nt	0.6	i	-1	1	-2.3	2.3	nt
CCN1CCN(C(=O)Cn2nc(-c3ccc(Cl)cc3)ccc2=O)CC1	0.63	nt	1.7	i	5	4	4.2	-0.8	nt
Cc1ccccc1NC(=O)C1CCCN(c2nnc(N3CCCC3=O)s2)C1 (centres undefined)	0.68	nt	4.8	i	6	14	-4.2	-4.3	-1
CCCCn1c(N)c(N(CC)C(=O)C2CCC2)c(=O)[nH]c1=O	0.69	-9%	3.1	i	9	7	5.7	-2.4	-1
NC(=O)C1(NC(=O)[C@@H]2CC3(CC(c4cccc(NC(=O)[C@@H]5CCC(=O)N5)c4)=NO3)CN2C(=O)c2cnccn2)CC1 (some centres undefined)	nt	-7%	5.2	i	13	11	-9.1	-1.3	-4

Fetched one by one from the list above:
SMILES	Ecoli growth	Vif A3G	HNF4A DNA FP	FGF22 binding	Ecoli rRNA inh	Ecoli rRNA inh OD600	Ecoli rRNA inh RFP	MLL AF4-AF9 inh	ALR inh
CCCCn1c(N)c(N(CC)C(=O)C2CCC2)c(=O)[nH]c1=O	0.69	-9%	3.1	i	9	7	5.7	-2.4	-1
CCn1c(CNC(=O)Cc2ccc(OC)cc2)n[nH]c1=S	0.72	18%	0.6	i	6	2	2.3	-2.8	6
COc1ccc(CNC(=O)COC(=O)c2cc(-c3cccs3)nc3ccccc23)cc1OC	0.75	-1%	6.0	nt	nt	nt	nt	nt	-2

Remaining list, next part:
SMILES	Ecoli growth	Vif A3G	HNF4A DNA FP	FGF22 binding	Ecoli rRNA inh	Ecoli rRNA inh OD600	Ecoli rRNA inh RFP	MLL AF4-AF9 inh	ALR inh
CC1CCCC(C)N1C(=O)CSc1nnc(CSc2ncccn2)n1C (centres undefined)	0.72	-1%	-1.6	nt	nt	nt	nt	nt	-8
O=C(c1ccc(F)cc1)N1CCN2C(=O)c3ccccc3C12c1ccc(Cl)cc1 (centres undefined)	0.64	nt	9.5	i	-26	-22	4.3	-0.3	nt
CC1=C(C(N)=O)C(c2cccs2)n2nc(-c3cccc(C)c3)nc2N1 (centres undefined)	0.7	10%	3.8	nt	nt	nt	nt	nt	nt
COc1cc(Cl)c(S(=O)(=O)NCCCn2ccnc2)cc1Cl	0.68	nt	2.5	i	13	-4	-0.8	0.0	5
COc1ccc(OC)c(NS(=O)(=O)c2ccc(-n3cccn3)cc2)c1	nt	nt	1.4	i	0	4	2.4	-0.6	nt
COc1ccccc1N1C(=O)C2C(c3ccccc3F)NN(C(=O)c3ccc(C)cc3)C2C1=O (centres undefined)	nt	3%	0.0	i	7	11	-1.9	2.4	-7
OC[C@@H]1[C@H](c2ccc(-c3ccc(F)cc3)cc2)[C@@H]2CN(CCC(F)(F)F)CCCCN12	nt	nt	nt	i	-58	-75	-10	5.3	nt
COc1ccc(C)cc1NC(=O)C(OC(=O)c1ccc(Cl)c(S(=O)(=O)N(C)c2ccccc2)c1)c1ccccc1 (centres undefined)	0.71	nt	-1.4	i	10	14	0.7	-0.2	-2
COc1ccc(NC(=O)NNC(=O)c2ccc(Cl)cc2Cl)cc1OC	0.66	1%	1.0	i	-2	12	-0.3	2.1	nt
Cn1c(N)c(C(=O)COC(=O)c2cc(S(=O)(=O)N3CCOCC3)ccc2F)c(=O)n(C)c1=O	0.71	nt	3.7	i	nt	nt	nt	-0.3	0
CCOC(=O)c1c(NC(C)=O)sc2c(O)c(CN3CCN(CC)CC3)ccc12	0.69	2%	-2.4	nt	nt	nt	nt	nt	44
CCOC(=O)c1nnc(-c2ccc(C)cc2)nc1Oc1ccccc1Cl	0.77	3%	-1.9	nt	nt	nt	nt	nt	0
COc1ccccc1-c1ccc2n(c1=O)C[C@H]1[C@H](CO)[C@@H](C(=O)N(C)C)N[C@@H]21	nt	nt	nt	i	1	1	-0.2	-7.4	nt
COc1ccc(CCNC(=O)COC(=O)c2cnc(Cl)c(Cl)c2)cc1	0.65	nt	0.5	i	3	2	-1.3	-0.1	-2
C[C@@H]1CN([C@@H](C)CO)C(=O)c2cc(NC(=O)CCCN(C)C)ccc2O[C@@H](C)CCCCO[C@@H]1CN(C)C(=O)NC1CCCCC1	nt	nt	nt	i	2	-2	-1.6	0.0	nt
CNC[C@@H]1Oc2c(NS(=O)(=O)c3cn(C)cn3)cccc2C(=O)N([C@H](C)CO)C[C@H]1C	nt	nt	nt	i	-2	-3	-3.0	-1.8	nt
O=C(CSc1nc(SCC(=O)NCc2ccccc2)n(-c2ccccc2)n1)NCc1ccccc1	0.72	-3%	0.2	i	7	-3	-5.8	-0.9	-2
N#Cc1ccc(Nc2nc(NCc3ccccc3)nc3ccsc23)cc1	nt	nt	-2.5	i	12	8	3.4	-0.5	nt
COc1ccc(OCC(O)COc2ccc(C(=O)O)cc2)cc1 (centres undefined)	0.7	18%	3.6	nt	nt	nt	nt	nt	-2
Cc1cc(NS(=O)(=O)c2ccc(NC(=O)C3CCCCC3)cc2)no1	0.71	nt	1.1	i	5	15	0.9	1.7	nt

Some of the compounds tested (hit frequency here may not be typical).
